PABP FP inh: PABP-poly(A) binding inhibition; P11940; PABP-poly(A) RNA binding, fluorescence polarization; inhibition, % at 35 µM; 290,000 compounds, 1% hits; AID 2014;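 active = 50% or more with normal probe brightness, or confirmed in later tests; inconclusive = above 50% with abnormal brightness, or retests that disagree; inactive = below 50% or failed in later tests; about a fifth of its hits are not listed in these tables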;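 note: calls also rest on retests at 20 µM and on dose response follow-up; controls were probe without protein and protein plus probe with vehicle; some compounds called inactive have numbers as strong as hits; many hits fall short of the cut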
Target sequence (P11940 whole entry, looked up): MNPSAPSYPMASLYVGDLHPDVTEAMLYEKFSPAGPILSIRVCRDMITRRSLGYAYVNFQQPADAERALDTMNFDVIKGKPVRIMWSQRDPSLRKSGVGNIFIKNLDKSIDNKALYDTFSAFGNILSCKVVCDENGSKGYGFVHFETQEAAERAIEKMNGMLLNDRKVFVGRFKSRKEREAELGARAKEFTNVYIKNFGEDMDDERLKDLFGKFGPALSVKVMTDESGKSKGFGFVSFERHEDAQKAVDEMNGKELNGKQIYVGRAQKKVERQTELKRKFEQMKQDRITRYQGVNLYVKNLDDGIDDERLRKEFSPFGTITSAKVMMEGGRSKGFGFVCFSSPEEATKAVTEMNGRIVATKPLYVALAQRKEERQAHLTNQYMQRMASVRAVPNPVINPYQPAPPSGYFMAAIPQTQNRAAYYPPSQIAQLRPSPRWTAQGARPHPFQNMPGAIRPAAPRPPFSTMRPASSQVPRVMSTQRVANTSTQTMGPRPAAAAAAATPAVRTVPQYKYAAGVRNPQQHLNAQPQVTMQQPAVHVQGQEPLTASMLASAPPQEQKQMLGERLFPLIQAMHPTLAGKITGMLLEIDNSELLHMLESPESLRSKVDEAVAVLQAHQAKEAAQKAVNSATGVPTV
HIV Env fusion: inhibitors of HIV Env-mediated cell fusion; HeLa-JRFL Env/CEM21 cell fusion, luciferase; 360,000 compounds, 1.1% hits; inhibition, % at 12.3 µM;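 active = mean replicate inhibition score of at least 50 and every replicate individually at or above 50; inconclusive = only one of the two criteria met; inactive = mean below 50 and not all replicates reaching 50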;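 note: 0% = plate neutral controls and 100% = maraviroc near 300 nM; one replicate is shown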
Rce1 inhib: blocks yeast Ras-converting enzyme; Q03530; yeast membranes, quenched prenylated peptide cleavage fluorescence; calls only; 290,000 compounds, 0.27% hits; AID 2563;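 active = fall in fluorescence gain of 50% or more versus controls, with final raw signal at or below 3038400; inconclusive = same 50% fall but final raw signal above 3038400; inactive = fall in fluorescence gain under 50%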;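 note: plate controls were neutral control wells for no effect and wells lacking membranes for full effect; tested at 10 µM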
Target sequence (Q03530 whole entry, looked up): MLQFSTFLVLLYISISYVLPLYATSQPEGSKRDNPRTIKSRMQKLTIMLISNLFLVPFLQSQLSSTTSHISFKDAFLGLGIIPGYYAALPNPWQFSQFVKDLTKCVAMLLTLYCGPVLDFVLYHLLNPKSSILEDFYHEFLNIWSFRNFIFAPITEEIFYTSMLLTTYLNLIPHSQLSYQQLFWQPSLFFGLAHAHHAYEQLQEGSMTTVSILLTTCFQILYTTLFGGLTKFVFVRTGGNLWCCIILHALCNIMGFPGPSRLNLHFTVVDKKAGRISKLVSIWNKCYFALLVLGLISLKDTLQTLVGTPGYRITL
MT1-MMP act inh: blocks activation of human MT1-MMP; P50281; AID 651647; 360,000 compounds, 0.061% hits; GFP/RFP ratio change, % at 20 µM; HT1080 RFP-PRO-GFP cells, GFP/RFP ratio fluorescence, overnight; percent of plate control window, DMSO zero;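 active = GFP/RFP ratio change of at least 30% with cell ATP level not reduced by more than half and red fluorescence within 50% of control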; note: strong numbers were not always called active
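Material: RFP-PRO-GFP reporter HT1080 cells. Dosing: single-point 20 µM compound, 1% DMSO. Controls: DMSO and RFP-L50D-GFP cell wells. Timing: cells overnight before dosing, compound overnight, 37 °C, 5% CO2. Measure: GFP/RFP fluorescence ratio.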
CSC inhib: cancer stem cell inhibition. inhibition, % at 7.5 µM. cancer stem cell-like cells viability, luminescence. 300,000 compounds, 1.1% hits;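 active = mean at 75% or more and at least half the replicates too; inconclusive = mean and replicates disagree; tested in HMLE shEcad cells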;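 note: 0% = median of negative and 100% = median of positive control wells; the first replicate is given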
Yeast UUG start: yeast start codon fidelity modulation; S. cerevisiae UUG-firefly luciferase reporter, luminescence/redox ratio; activity score, % at 18.7 µM; 350,000 compounds, 0.13% hits; AID 602363;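 active = replicate mean at a twofold rise or more, about +100% in these data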;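 note: firefly luciferase made from a UUG start codon reports start codon fidelity; reporter light over untreated wells divided by growth signal over untreated wells; some hits fall short of that in this replicate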
eIF4H FP inh: inhibitors of RNA binding by human eIF4H; Q15056; eIF4H fluorescence polarization binding assay; inhibition, % at 35 µM; 290,000 compounds, 0.94% hits; AID 2012;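 active = 50% or more with normal probe brightness, or confirmed in later tests; inconclusive = above 50% with abnormal brightness, or retests that disagree; inactive = below 50% or failed in later tests; about a fifth of its hits are not listed in these tables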;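 note: calls also rest on retests at 20 µM and on dose response follow-up; 0% = protein and probe with vehicle and 100% = probe without protein; strong numbers were not always called active; many hits fall short of the cut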
eIF4H FP inh retest: also measured in eIF4H FP inh; calls as there; inhibition, %; compound at 20 µM; confirmation average;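 mean of two retest wells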
PABP FP inh retest: also measured in PABP FP inh; calls as there; inhibition, %; compound at 20 µM; confirmation repeats;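 mean of two retest wells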
MT1-MMP act inh RFP: also measured in MT1-MMP act inh; calls as there; RFP signal change, %; measured here: RFP expression control read;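 0 = vehicle wells; hits needed this value within 50% of zero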
Starred values were filed as active, the others as inactive; i = inactive; ? = inconclusive; . = not tested or not shown.

SMILES | PABP FP inh | HIV Env fusion | Rce1 inhib | MT1-MMP act inh | MT1-MMP act inh RFP | CSC inhib | Yeast UUG start | eIF4H FP inh | others
O=C(CSc1ccc(F)cc1)Nc1ccc(Br)cc1 | 2 | -6 | i | -2 | 0 | 9 | . | -5
O=C(Nc1ccc(N2CCOCC2)cc1)C1CCN(S(=O)(=O)c2ccc3c(c2)OCCO3)CC1 | 0 | -4 | i | . | . | -9 | . | -2
COc1ccc(OCC(=O)N2CCC(n3nccc3NC(=O)C3CC3)CC2)cc1 | -6 | -6 | i | 4 | 3 | 7 | -14 | -6
CCC(C)(C)n1nnnc1C(c1ccccc1)N1CCN(C2CCCC2)CC1 (stereo unspecified) | 31 | . | i | 14 | 7 | 0 | 2 | -5
O=C(O)CSc1nnc(-c2ccc(Cl)cc2Cl)n1-c1ccccc1 | -4 | 3 | i | -4 | 3 | -2 | -18 | -5
CCc1nc2ccc(C(=O)NCCOc3ccc(OC)cc3)cn2c1N(C)C(=O)Cc1ccccc1 | . | 21 | . | 4 | 0 | . | -15 | .
COc1cc(C=O)ccc1Oc1nnnn1-c1ccc(C(N)=O)cc1 | -2 | 7 | i | 2 | -1 | -3 | -12 | -7
Cc1cc(C)cc(NC(=O)CN2CCN(C(=O)c3cccs3)CC2)c1 | . | -4 | . | 1 | 1 | . | -9 | .
NC(CCc1ccccc1)c1csc(Nc2ccccn2)n1 (stereo unspecified) | . | 85* | . | -3 | 0 | . | -22 | .
NC(=O)COC(=O)c1cc(=O)[nH]c2ccc(S(=O)(=O)Nc3ccc(F)cc3)cc12 | 5 | 3 | . | 2 | 2 | 4 | -16 | 6
CC(/C=C/c1ccc(N(C)C)cc1)=N\N=C(/N)SC1CC(=O)N(c2ccc(C(=O)O)cc2)C1=O (stereo unspecified) | -3 | -57 | i | -15 | 9 | 14 | -6 | ?
O=C(NCc1ccco1)c1cccc2c1C(=O)c1ccc(N3CCC(N4CCCCC4)CC3)cc1S2(=O)=O | . | 8 | . | -22 | 5 | . | -7 | .
CCN(CC)CCCN(C)C(=O)Cn1nc(Cc2ccncc2)c2ccccc2c1=O | 11 | 11 | i | 0 | 1 | -25 | -18 | -4
O=C(/C=C/c1cccnc1)c1cccc(O)c1 | 8 | 5 | i | -5 | -1 | 5 | -15 | 5
CN(C)/C=N/c1nccc(-c2cccs2)n1 | -3 | -15 | i | 3 | 0 | -2 | . | 1
CCOC(=O)c1c(CN2CCN(C)CC2)n(C)c2cc(Br)c(OC)cc12 | -10 | 44 | i | -10 | -4 | 42 | . | -14
CN(Cc1nccn1C)C(=O)CC1C(=O)NCCN1Cc1cccc(Oc2ccccc2)c1 (stereo unspecified) | 13 | 12 | i | 3 | 9 | . | -17 | -4
O=C(Nc1cccc(S(=O)(=O)N2CCCCC2)c1)c1ccc(N2CCCC2=O)cc1 | . | -14 | . | 4 | -8 | . | -1 | .
CC1/C(=C\c2ccc(Cl)cc2)C(=O)C2CC1C2(C)C (stereo unspecified) | 6 | . | i | 6 | -2 | -9 | -7 | 2
Cc1cc(C(=O)NNc2ccc(C)c(C)c2)no1 | 4 | -18 | i | 0 | 5 | 59 | . | -15
Cc1ccc(N2C(=O)c3ccccc3C2O)nc1 (stereo unspecified) | -24 | . | i | . | . | 50 | . | -19
C/C(=N\NC(=O)c1cc2c(s1)CCC(C)C2)c1ccc[nH]1 (stereo unspecified) | . | -48 | . | -1 | 2 | 7 | -20 | .
CCOC(=O)c1c(C)[nH]c(=S)c(C#N)c1-c1ccccc1 | 0 | -4 | i | -1 | 0 | 4 | -44 | -4
Cn1cc(CN2CCN(c3ccccc3)CC2)c2ccccc21 | -2 | 11 | i | 2 | 4 | 13 | -13 | -15
O=C(CNC(=O)c1ccc2c(c1)OCO2)N/N=C(Br)/C=C/c1ccccc1 | 0 | . | i | -2 | -3 | -7 | -5 | 1
CCOCCn1c(=O)c2c(nc3n2CCCN3Cc2ccccc2)n(C)c1=O | -6 | -18 | i | 4 | 5 | -5 | -12 | -11
CC(=O)c1sc(C(=O)O)c(-c2ccco2)c1-c1ccco1 | 26 | -5 | . | 1 | 4 | -4 | . | 27
CN(C)c1ccc(CNn2cnnc2SCc2ccc(F)cc2)cc1 | 50 | 7 | i | -1 | -3 | -7 | -20 | 0
C[C@H](CO)N1C[C@H](C)[C@@H](CN(C)S(=O)(=O)c2cn(C)cn2)Oc2ccc(NS(=O)(=O)c3ccccc3)cc2C1=O | . | -5 | . | -4 | 4 | -4 | -3 | .
NC(=O)CSc1cn(CCNC(=O)c2cccs2)c2ccccc12 | 15 | -25 | i | -2 | 2 | -1 | -2 | -9
COc1ccc(C(=O)Nc2ccncc2)cc1[N+](=O)[O-] | 5 | -70 | i | 0 | -2 | -17 | -20 | -6
C/C=C/c1ccc(OCCSc2nc(C)cc(=O)[nH]2)c(OC)c1 | 9 | -16 | i | 8 | -2 | 11 | -9 | -6
C=C(C)CNC(=S)Nc1nc2c(cc1C(=O)OCC)CCCC2 | 1 | -16 | i | 7 | -9 | . | -14 | -3
Cc1cc(C)nc(SCC(=O)N(C)CC(=O)Nc2ccccc2Br)n1 | . | -3 | i | 1 | 3 | -10 | -7 | .
Cc1ccc(C)c(N2CCN(C(=O)CNS(=O)(=O)c3cccs3)CC2)c1 | 8 | . | i | 2 | 3 | 20 | 0 | 4
O=c1c2ccccc2ncn1Cc1ccc2c(c1)OCO2 | 1 | -4 | i | 0 | 4 | -11 | -16 | -3
COc1cc(C(=O)Nc2ccc(O)cc2C(=O)O)ccc1OC(C)=O | 9 | -3 | i | 37* | 9.0* | -7 | . | 3
C=CCNC(=O)c1ccccc1NC(=O)c1ccc(Cl)c(S(=O)(=O)Nc2cccc(C)c2C)c1 | 15 | -5 | i | 2 | -16 | 9 | -6 | -4
COc1ccccc1NC(=O)Nc1ccc(Cc2ccncc2)cc1 | 5 | -21 | i | -4 | 0 | 40 | . | 0
CCCCN(C)CCCNC(=O)CS(=O)Cc1nc(-c2ccc(OC)c(OC)c2)oc1C (stereo unspecified) | -2 | -6 | i | 9 | 4 | -1 | -18 | -14
CCOc1ccccc1NC(=O)CCS(=O)(=O)c1ccc(Br)cc1 | 46* | 0 | i | -3 | -3 | -9 | -14 | 84* | eIF4H FP inh retest=95*;PABP FP inh retest=71*
O=C(NC1CC1)c1sc2ccccc2c1Cl | -5 | -11 | i | 0 | 1 | 4 | -13 | -2
CN1CCN(S(=O)(=O)Cc2ccccc2Cl)CC1 | 7 | -11 | i | -6 | -1 | -5 | -19 | -5
CC(=O)N1CCN(C(=O)CCC(=O)O)CC1 | 2 | 15 | i | 4 | 3 | -17 | . | -1
CCN(c1ccccc1)S(=O)(=O)c1ccc(NN)nc1 | . | . | . | 4 | 3 | -6 | -12 | .
COc1cc(OC)cc(-c2nc3nc(C)c(CCC(=O)O)c(C)n3n2)c1 | 18 | . | i | 5 | 3 | -6 | -22 | 10
O=C(Nc1ccsc1C(=O)N1CCCCCC1)c1ccccc1 | -4 | -6 | i | 0 | -1 | 36 | -14 | 4
C/C(=N\NC(=O)c1nnn(-c2nonc2N)c1-c1cccs1)c1ccc(C)cc1 | 4 | -5 | i | -6 | 1 | -2 | -16 | -14

Filtered by structure: those above containing fluorine
SMILES | PABP FP inh | HIV Env fusion | Rce1 inhib | MT1-MMP act inh | MT1-MMP act inh RFP | CSC inhib | Yeast UUG start | eIF4H FP inh | others
O=C(CSc1ccc(F)cc1)Nc1ccc(Br)cc1 | 2 | -6 | i | -2 | 0 | 9 | . | -5
NC(=O)COC(=O)c1cc(=O)[nH]c2ccc(S(=O)(=O)Nc3ccc(F)cc3)cc12 | 5 | 3 | . | 2 | 2 | 4 | -16 | 6
CN(C)c1ccc(CNn2cnnc2SCc2ccc(F)cc2)cc1 | 50 | 7 | i | -1 | -3 | -7 | -20 | 0

(next part)
SMILES | PABP FP inh | HIV Env fusion | Rce1 inhib | MT1-MMP act inh | MT1-MMP act inh RFP | CSC inhib | Yeast UUG start | eIF4H FP inh | others
C[C@H](CO)N1C[C@H](C)[C@H](CN(C)C(=O)Nc2ccc(F)cc2)Oc2c(NC(=O)c3ccc(-c4nccs4)cc3)cccc2C1=O | . | -61 | . | -3 | 3 | -1 | -2 | .
CC(=O)Nc1ccc(N2CCCC(C)C2)c([N+](=O)[O-])c1 (stereo unspecified) | -2 | -9 | i | 2 | 0 | 0 | . | -2
O=C(CCS(=O)(=O)c1ccccc1)Nc1nncs1 | 18 | -1 | i | -1 | 6 | 14 | -25 | 74 | eIF4H FP inh retest=28;PABP FP inh retest=10
O=S(=O)(c1ccc(-c2ccon2)s1)N1CCN(c2ccccn2)CC1 | -1 | -16 | i | 1 | -3 | -2 | . | 4
CC(C)C(OC(=O)CCCC(=O)Nc1nccs1)C(=O)NC1CCCCC1 (stereo unspecified) | 15 | 8 | i | -1 | 1 | -4 | . | -12
CC(C)(C)OC(=O)C1=C(CO)CS[C@@H]2[C@H](NC(=O)Cc3ccccc3)C(=O)N12 | . | 41 | . | -1 | 5 | . | -10 | .
Clc1cccc(N=C2NN=C(c3ccc4c(c3)OCCO4)CS2)c1 | -2 | . | i | -26 | -23 | 17 | -40 | -1
Nc1ncnc(NCc2ccccc2)c1[N+](=O)[O-] | 11 | 10 | i | -9 | -6 | -18 | . | 3
COc1ccc(N2CCN(C(=O)c3ccc(CS(=O)Cc4ccc(C)cc4)o3)CC2)cc1 (stereo unspecified) | 5 | -3 | i | 1 | -3 | -4 | -6 | -2
COc1ccc(CNc2ccc(N3CCOCC3)cc2)cc1 | 8 | -18 | i | 4 | 5 | -14 | 0 | 9
Cc1nnc(SCC(=O)NC2CC2)n1-c1ccccc1 | 8 | -28 | i | 2 | 0 | -7 | -10 | -8
CCOC(=O)c1c(-c2ccc(C)cc2)csc1/N=C(\C)C1=C(O)c2ccccc2C1=O | -14 | -2 | i | 2 | -14 | 60 | -20 | 4
CCOC(=O)c1c(-c2cccs2)csc1NC(=O)CN1CC(C)OC(C)C1 (stereo unspecified) | -1 | . | i | -7 | -13 | 10 | 4 | -6
CC(C)CNC(=O)NC(=O)COc1ccc(C=O)cc1 | 4 | 22 | i | 1 | 3 | -3 | -22 | -6
O=C(O)CN1C(=O)C2C3CC(C2C1=O)C1C(c2ccc(Cl)cc2)c2sc(=O)[nH]c2SC31 (stereo unspecified) | 2 | 9 | . | -4 | -1 | 1 | . | 25
CCn1c(SCC(=O)N/N=C/C=C\c2ccccc2[N+](=O)[O-])nnc1-c1ccccc1 | 2 | -6 | i | 1 | 4 | -6 | -20 | -14
Cc1cc(Br)ccc1OCCCCN1CCCCC1 | 9 | -12 | i | 3 | 4 | 39 | -12 | 14
C#CCCOC(=O)Nc1ccccc1 | -7 | -2 | i | 3 | 1 | 1 | -13 | 2
CC(NS(=O)(=O)c1ccc(Cl)c(Cl)c1)C(=O)OCC(=O)Nc1ccc2c(c1)OCO2 (stereo unspecified) | 6 | -8 | i | -3 | 3 | -5 | -14 | -9
CCOc1cc(N2CCOCC2)c(OCC)cc1NC(=O)CSc1ncccc1C(=O)O | . | -1 | . | 1 | 5 | -21 | -27 | .
COc1ccc(CN2CCN(Cc3ccccc3F)CC2)c(OC)c1 | 7 | -5 | i | -2 | 2 | 7 | 8 | 4
COc1ccccc1C(=O)N1CCN(Cc2cccnc2)CC1 | 0 | 27 | i | 0 | -1 | -19 | -12 | -1
CCOC(=O)c1c(C)[nH]c(C(=O)OCC(=O)NCc2ccc(C)cc2)c1C | . | . | . | 0 | 4 | -8 | 0 | .
